Polio RdRp inh: poliovirus RNA polymerase inhibition | P03300 | poliovirus polymerase elongation, fluorescence polarization; active compounds read low | % elongation, % (compound at 16.7 µg/mL) | actives 0.66% (n = 150,000); in the data active means % elongation below about 90%; further: some results filed as inactive read as strong as hits
Target sequence (P03300 1749-2209 limits assumed): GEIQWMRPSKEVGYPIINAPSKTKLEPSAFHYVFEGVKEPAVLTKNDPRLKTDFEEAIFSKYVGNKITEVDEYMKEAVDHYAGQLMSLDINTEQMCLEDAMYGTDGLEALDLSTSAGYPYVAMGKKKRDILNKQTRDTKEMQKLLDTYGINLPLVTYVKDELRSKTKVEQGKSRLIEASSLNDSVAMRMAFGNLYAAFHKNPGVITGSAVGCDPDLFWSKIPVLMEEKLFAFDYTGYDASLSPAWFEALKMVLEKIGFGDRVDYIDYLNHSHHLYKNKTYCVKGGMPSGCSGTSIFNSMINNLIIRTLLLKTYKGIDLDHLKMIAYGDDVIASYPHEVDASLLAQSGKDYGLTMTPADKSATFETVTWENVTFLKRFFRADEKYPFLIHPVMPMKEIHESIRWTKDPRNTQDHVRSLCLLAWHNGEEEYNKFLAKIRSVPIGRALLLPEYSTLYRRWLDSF
MbtI inh: MbtI salicylate synthase inhibition; purified MbtI enzyme, fluorescence intensity read-out; inhibition, %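 (about 17 µg/mL by stock and volumes)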; actives 0.89% (n = 100,000);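 active means above 50% in both replicates, above 80% if mildly self-fluorescent; inactive means the rest, strongly fluorescent compounds included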;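 further: 0% = mean of negative and 100% = mean of positive controls; one replicate is shown; some compounds called inactive have numbers as strong as hits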
MenB inh: Mtb MenB enzyme inhibition; P9WNP5; MenB enzyme assay, absorbance read-out; some hits fall short of the stated cut; inhibition, %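 (about 12 µg/mL by stock and volumes)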; actives 0.43% (n = 100,000);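 active means mean of two replicates above 30%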;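 further: 0% = no compound and 100% = wells with inactive enzyme; the first replicate is given; strong numbers were not always called active; inactives centre near -10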
Target sequence (P9WNP5 whole entry, looked up): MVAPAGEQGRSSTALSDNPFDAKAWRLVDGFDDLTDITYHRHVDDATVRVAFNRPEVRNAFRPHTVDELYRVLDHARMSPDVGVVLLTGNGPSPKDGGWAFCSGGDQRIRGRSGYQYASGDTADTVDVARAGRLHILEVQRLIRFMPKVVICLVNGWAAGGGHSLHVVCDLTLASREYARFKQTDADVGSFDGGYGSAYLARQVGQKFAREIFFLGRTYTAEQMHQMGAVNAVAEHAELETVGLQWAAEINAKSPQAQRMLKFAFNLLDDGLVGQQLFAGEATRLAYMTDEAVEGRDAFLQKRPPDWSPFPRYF
Polio RdRp inh intensity: second read-out of Polio RdRp inh, no call of its own (marks repeat the call); % elongation; measured here: total intensity read-out; formula for this scale not given here;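 total fluorescence in place of polarization; lower means less elongation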
* marks the source's active call; other numbers are inactive results; · = not tested or not shown; & = joins results of further samples.

Values run as follows: Polio RdRp inh, Polio RdRp inh intensity, MbtI inh, MenB inh
- CCCc1cc(C(=O)N2CCCCCCC2)cs1
  103, 105, -4, -13
- Nc1ccc(Br)cc1C(O)c1ccccc1Cl (stereo not given)
  100, 102, -13, ·
- O=C(/C=C/c1ccco1)N(Cc1ccco1)Cc1cccs1
  105, 109, -8, -29
- CC1(C)Oc2ccc(C#N)cc2[C@@H](OC2=CC(=O)CC2)[C@@H]1O
  102&101, 104&102, -16, -28
- O=C(c1ccc(F)cc1)N1CCCCC(Sc2ncnc3sc4c(c23)CCC4)C1=O (stereo not given)
  99, 105, -12, -6
- CCOC(=O)c1cc(-c2nnc(-c3ccc(C)cc3)o2)c(C)nc1C
  104, 106, -2, 1
- Cc1cc(C)n(CCc2nc3c4ccccc4nc(NCCC(C)C)n3n2)n1
  99, 104, 5, -72
- CC(C)(C)/C=N/NC(=O)c1nc(-c2ccc(C(C)(C)C)cc2)no1
  100, 98, -1, -4
- O=C1NC2(CCN(C(=O)c3ccc(Cl)cc3)CC2)N=C1c1ccccc1
  100, 97, 76, -2
- O=c1ccc(-c2ccc(S(=O)(=O)NCCN3CCCC3)s2)n[nH]1
  100, 103, 125, 24
- CN(C)/N=C/c1ccc(P(N2CCOCC2)N2CCOCC2)o1
  101, 99, 3, -17
- CC(=O)Nc1ccc(OC(=O)N2CCCC2)cc1
  100, 101, -8, 4
- COC(=O)C(Cc1c[nH]c2ccccc12)NS(C)(=O)=O (stereo not given)
  102, 99, 8, 9
- O=C(CCc1ccco1)Nc1ccc(-c2nnc3n2CCCCC3)cc1
  99, 107, -6, -8
- Cc1ccccc1NC(=O)N1CCN(Cc2ccccc2)CC1
  102, 99, -16, -11
- CN(C)C(=O)CCSc1nc2cc(Cl)ccc2o1
  ·, ·, -2, -58
- CCOC(=O)c1c(C)noc1-c1csc(-c2cccc(C(F)(F)F)c2)n1
  102, 106, -1, -6
- CC(Oc1ccc(Cl)cc1Cl)C(=O)N(C)C (stereo not given)
  101, 104, -6, 5
- O=C(Cn1sc2ccccc2c1=O)N1CCN(c2ccccc2)CC1
  102, 108, 1, 6
- O=C(CCc1ccccc1)Nc1ccc2[nH]c(=O)oc2c1
  100, 102, -12, 0
- CCc1cccc(C)c1NC(=O)CCC(=O)N1CCOc2ccccc21
  103, 108, -6, 3
- CCN(CC)C(=O)N1CCC(C(=O)OC)CC1
  99, 100, -4, 8
- CCCCNC(=O)c1cc(-c2cccs2)on1
  101, 100, -5, -4
- CC(C)(C)c1nc2scc(-c3ccc(Cl)cc3)n2n1
  104, 112, -11, 11
- N#C/C(=C\c1ccc(-c2cccc(Cl)c2)o1)C(N)=O
  100, 107, -17, -44
- CC(C)C(=O)c1cn(CC(=O)NCC2CCCO2)c2ccccc12 (stereo not given)
  102, 101, 19, -18
- Cc1cc(OCC(N)=O)c(C(C)C)cc1Cl
  97, 96, -5, ·
- O=S(=O)(c1ccc2nnn(O)c2c1)N1CCCCC1
  99, 104, -2, -1
- CCCn1c(SCC(=O)Nc2ccccc2)n[nH]c1=O
  96, 103, -16, -1
- CN(C(=O)C1CC(c2ccccc2F)=NO1)c1ccccc1 (stereo not given)
  99, 96, 6, 6
- CCCC1CC(c2csc(C)n2)CCO1 (stereo not given)
  106, 110, ·, 4
- CC1=NN(c2ccccc2)C(=O)/C1=C/c1cn(CC(O)CN2CCCCC2)c2ccccc12 (stereo not given)
  101, 104, 0, -83
- O=c1c(=O)n(Cc2ncc(-c3ccccc3)o2)c2cc(Cl)ccc2n1Cc1ccccc1
  105, 113, 101, -26
- Cc1cccc(N=Cc2c(C)c(C#N)c3[nH]c4ccccc4n3c2=O)c1C
  56, 146, 0, -11
- Nn1c(SCC(=O)Nc2ccccc2Oc2ccccc2)nnc1C1CC1
  105, 106, 3, -26
- Brc1ccccc1OCc1nc2ccccc2[nH]1
  108, 114, ·, -10
- C=CCn1c(Cc2nc3ccccc3[nH]2)n[nH]c1=S
  100, 99, 39, -7
- Cc1ccccc1OCCC(=O)NCCc1ccccn1
  98, 97, 15, -20
- COc1ccc(C/C(N)=N/OC(C)=O)cc1OC
  99, 102, -13, -14
- O=C(NCc1ccccc1)c1cccc2c1C(=O)N(C1CCCCC1)C2
  98, 96, 13, -11

Arranged by number of heavy atoms (lowest first): some entries from above.
Values run as follows: Polio RdRp inh, Polio RdRp inh intensity, MbtI inh, MenB inh
- CCCC1CC(c2csc(C)n2)CCO1 (stereo not given)
  106, 110, ·, 4
- CC(Oc1ccc(Cl)cc1Cl)C(=O)N(C)C (stereo not given)
  101, 104, -6, 5
- CCN(CC)C(=O)N1CCC(C(=O)OC)CC1
  99, 100, -4, 8
- COc1ccc(C/C(N)=N/OC(C)=O)cc1OC
  99, 102, -13, -14
- C=CCn1c(Cc2nc3ccccc3[nH]2)n[nH]c1=S
  100, 99, 39, -7
- CCCn1c(SCC(=O)Nc2ccccc2)n[nH]c1=O
  96, 103, -16, -1
- Cc1ccccc1OCCC(=O)NCCc1ccccn1
  98, 97, 15, -20
- CN(C(=O)C1CC(c2ccccc2F)=NO1)c1ccccc1 (stereo not given)
  99, 96, 6, 6
- O=c1ccc(-c2ccc(S(=O)(=O)NCCN3CCCC3)s2)n[nH]1
  100, 103, 125, 24
- CC(C)C(=O)c1cn(CC(=O)NCC2CCCO2)c2ccccc12 (stereo not given)
  102, 101, 19, -18
- O=C(Cn1sc2ccccc2c1=O)N1CCN(c2ccccc2)CC1
  102, 108, 1, 6
- CCOC(=O)c1c(C)noc1-c1csc(-c2cccc(C(F)(F)F)c2)n1
  102, 106, -1, -6
- Nn1c(SCC(=O)Nc2ccccc2Oc2ccccc2)nnc1C1CC1
  105, 106, 3, -26
- Cc1cc(C)n(CCc2nc3c4ccccc4nc(NCCC(C)C)n3n2)n1
  99, 104, 5, -72
- O=C(c1ccc(F)cc1)N1CCCCC(Sc2ncnc3sc4c(c23)CCC4)C1=O (stereo not given)
  99, 105, -12, -6
- O=c1c(=O)n(Cc2ncc(-c3ccccc3)o2)c2cc(Cl)ccc2n1Cc1ccccc1
  105, 113, 101, -26
- CC1=NN(c2ccccc2)C(=O)/C1=C/c1cn(CC(O)CN2CCCCC2)c2ccccc12 (stereo not given)
  101, 104, 0, -83

Additional structures
Values run as follows: Polio RdRp inh, Polio RdRp inh intensity, MbtI inh, MenB inh
- c1ccc(-c2ccc(Oc3cnccn3)cc2)cc1
  95, 96, 3, -5
- Cc1cccc(NC(=O)N2CCCC2C(=O)Nc2ccccc2)c1 (stereo not given)
  104, 100, -10, -8
- O=S(=O)(c1ccccc1C(F)(F)F)N1CCN(S(=O)(=O)c2ccccc2C(F)(F)F)CC1
  101, 100, -4, 5
- CCc1ccc(NC(=S)N(Cc2ccco2)C2CCN(C(C)C)CC2)cc1
  99, 101, 10, -15
- CC(C)N1CCc2[nH]c(=S)[nH]c(=O)c2C1
  100, 100, 91, -49
- CC(=O)[C@H]1[C@H](C#N)C[C@H]2[C@@H]3CC=C4C[C@@H](O)CC[C@]4(C)[C@H]3CC[C@@]21C
  101, 102, -5, ·
- Cc1cc(=O)n2[nH]c(S(C)(=O)=O)nc2n1
  98, 93, ·, 3
- Cc1ccc(-c2cn3ccccc3n2)cc1
  104, 108, 108, 1
- COc1ccc(NC(=O)C(C)Oc2ccc3c(C)c(CCC(C)C)c(=O)oc3c2)cc1 (stereo not given)
  103, 104, -3, -32
- CC(CC(=O)NCc1cccnc1)c1ccccc1 (stereo not given)
  103, 103, -5, 3
- CCn1c2ccccc2c2nnc(NCCCN3CCN(c4cccc(Cl)c4)CC3)nc21
  100, 103, -4, 19
- CCCN1C/C(=C/c2ccsc2)C(=O)/C(=C/c2ccsc2)C1
  99, 98, 1, ·
- Cc1ccccc1CN1CCNC(=O)C1CC(=O)O (stereo not given)
  100, 104, -1, 16
- CC(C)N(CCC#N)C(=O)Nc1ccc2c(c1)CCO2
  99, 102, 0, -15
- CSc1ccc(S(=O)(=O)Nc2ccccc2)cc1
  103, 102, -4, -22
- O=C(CSc1nc2ccccc2c(=O)n1C1CCCC1)Nc1ccc2c(c1)OCCO2
  102, 103, 6, -46
- Cc1ccc2c(CNCCc3ccco3)c(C(=O)O)n(Cc3ccccc3)c2c1
  100, 99, 10, -1
- COc1ccc(-c2nn(-c3ccccc3)cc2C(=O)Nc2ccc3[nH]c(=O)[nH]c3c2)cc1
  97, 89, 91, -39
- CCn1c(SCCN2CCCC2)nnc1C1CCCN(S(C)(=O)=O)C1 (stereo not given)
  102, 104, -5, -29
- COC(=O)c1cccc(C(=O)Nc2ccc(F)cc2)n1
  103, 102, -8, -11

Compounds from the list above containing a COOH group, in the order listed:
Values run as follows: Polio RdRp inh, Polio RdRp inh intensity, MbtI inh, MenB inh
- Cc1ccccc1CN1CCNC(=O)C1CC(=O)O (stereo not given)
  100, 104, -1, 16
- Cc1ccc2c(CNCCc3ccco3)c(C(=O)O)n(Cc3ccccc3)c2c1
  100, 99, 10, -1

Remaining list, next part:
Values run as follows: Polio RdRp inh, Polio RdRp inh intensity, MbtI inh, MenB inh
- Nn1c2ccccc2c2ccccc21
  103, 102, 92, -17
- O=C(CCc1ccccc1)NC(c1ccc2c(c1)OCO2)c1c(O)ccc2ccccc12 (stereo not given)
  107, 105, ·, -24
- CCSc1ncnc2sc3c(c12)CCC3
  100, 101, -8, ·
- O=C(Nc1ccccc1)N1CCC(C(=O)N2CCc3ccccc3C2)CC1
  99, 106, -1, -6
- Cc1ccc(C)c(C(=O)OCC(=O)C(C)(C)C)c1
  106, 109, -2, -16
- COC(=O)c1cc(C23CC4CC(CC(C4)C2)C3)oc1C
  100, 102, -18, -24
- Fc1ccccc1CN1CCN(Cc2ccccc2F)CC1
  101, 101, -12, 11
- Cc1nc(-c2nnc(-c3ccccc3)o2)c(C(F)(F)F)o1
  100, 93, -8, 2
- COc1ccc(Nc2cnc(=O)nc3ccccc23)cc1
  101, 100, 1, -47
- CCOC(=O)c1[nH]c(=O)[nH]c1CSCCO
  100, 101, -2, -68
- c1csc(CNc2ccc(NCc3cccs3)cc2)c1
  102, 98, ·, 9
- O=C(NCC(F)(F)F)c1ccc2c(c1)OCO2
  102, 106, 40, 2
- C=CCN(CC=C)C(=O)c1cc(-c2ccccc2)nc2ccccc12
  105, 110, -7, -15
- CCOC(=O)/C(=C\c1cc(Br)c(O)c(OC)c1)C1=Nn2c(C)nnc2SC1
  100, 111, 18, -148
- COc1ccc(C(=O)N2c3ccccc3CC2C)cc1 (stereo not given)
  101, 100, 2, 32*
- COc1ccc(S(=O)(=O)N2CCCC(C(=O)NCCN3CCOCC3)C2)cc1C (stereo not given)
  101, 99, -3, -28
- CCn1c(-c2ccc(C)cc2)cs/c1=N\N=C/c1ccc(O)c(OC)c1
  101, 104, 10, -38
- CC(C)(C)C(=O)Nc1ccccc1C(=O)NCc1cccnc1
  101, 108, -14, -6
- CCOc1ccc(NC(=O)CN2C3CCC2CC(=O)NC3)cc1 (stereo not given)
  101, 102, 4, -33
- CCC(C)c1ccccc1NC(=O)c1ccc(=O)n(C)n1 (stereo not given)
  99, 103, 5, -11
- CCC(C)C(=O)O[C@H]1[C@H](O)C2C(CN3CC(C)CCC3[C@@]2(C)O)C2C[C@]34O[C@]5(O)C(OC(=O)C(C)(O)CC)CC[C@@]3(C)C5C(OC(C)=O)[C@@H](OC(C)=O)C4[C@@]21O (stereo not given in full)
  102, 98, -4, -5
- NNCc1c(Cl)cccc1Cl
  102, 102, 39, 15
- O=C(/C=C/c1ccccc1)N1CCN(CCN2C(=O)C3C4C=CC(C4)C3C2=O)CC1 (stereo not given)
  101, 102, 9, 25
- O=C(OCc1nnc(-c2ccccc2)o1)c1cccc(S(=O)(=O)N2CCCC2)c1
  104, 109, -11, -26
- Cc1nc(Nc2nc3ccccc3o2)[nH]c(=O)c1C
  98, 97, 5, -24
- Cc1ccccc1Nc1nc(N)nc(CN2C(=O)CS/C2=C\C(=O)C(C)(C)C)n1
  116, 118, 11, -17
- Cc1nc(=O)c(-c2ccccc2)c(C)n1CCN1CCCCC1
  103, 97, -2, -32
- CCN1CCN(C(=O)C2CCCN(c3nn4cc(-c5ccc(OC)cc5)nc4s3)C2)CC1 (stereo not given)
  107, 107, -3, -55
- O=C(O)C1CCCN(Cc2ccco2)C1 (stereo not given)
  104, 102, -6, -53
- CCN(CC)C(=O)CSc1nc2cccnc2n1C
  102, 103, 14, 0
- Cc1ccc(CNc2nc3ccccc3s2)s1
  97, 100, 1, 4
- CC1CCCC(NC(=O)COC(=O)c2cccc(Br)c2)C1C (stereo not given)
  100, 104, -7, ·

Source: PubChem
